Compound activity: PubChem, National Center for Advancing Translational Sciences (NCATS)
2A StopGo: FMDV 2A StopGo reporter, luciferase signal. human cells with a luciferase reporter of 2A StopGo recoding; control for the full effect not named in the record. Potency, µM (highest dose often 57.9 µM), for inactives: top-dose signal change, negative = less light. 1.2% of 410,000 active. AID 1159524; active = well fitted falling curve with a large enough effect; inconclusive = small, poorly fitted or top-dose-only effect; inactive = no such curve, though single readings can be large or run the other way; tested in HEK293T cells; further: on the % scale 0 is the no-effect control and ±100 the full control effect; nearly all actives have a fitted effect of over 45% in size; luciferase light after 4 h
SARS PLP yeast: blocks SARS-CoV papain-like protease in a yeast assay; S. cerevisiae expressing SARS-CoV PLpro, growth rescue; control for the full effect not named in the record; Potency, µM (highest dose often 32.9 µM), inactives show at the top dose activity, positive = growth rescue; 0.19% of 330,000 active; AID 485353; active means well fitted rising curve with a large enough effect; inconclusive means small, poorly fitted or top-dose-only effect; inactive means no such curve, though single readings can be large or run the other way; further: 0% is about no effect; nearly all actives have a fitted effect of over 55% in size; growth read by luminescence after 48 h
NS1 inh: inhibitors of influenza NS1 protein function; S. cerevisiae slowed by influenza A NS1, growth recovery by OD600; Potency, µM (titrated, usually from 46.1 µM), for the others: at the highest dose activity, positive = more growth; 0.4% of 270,000 active; active means well fitted rising curve with a large enough effect; inconclusive means small, poorly fitted or top-dose-only effect; inactive means no such curve, though single readings can be large or run the other way; further: nearly all actives have a fitted effect of over 50% in size
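Recovery from NS1-induced slow growth read by OD600 in budding yeast switched to galactose assay medium (pH 6.0, -URA) at 1:100 dilution. Compound 23 nl per well; the matching strain lacking NS1 serves as control.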
Cruzain noTriton: inhibitors of Trypanosoma cruzi cruzain without detergent; Potency, µM, for the others: max response, negative = inhibition, hits mostly inhibitors; AID 1476; purified cruzain, Z-FR-AMC fluorescence, no detergent; P25779; 2.3% of 200,000 active;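 further: plate controls were enzyme without inhibitor for no effect and buffer without enzyme for full effect; nearly all actives have a fitted effect of over 40% in size; top concentration of the series not given in the record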
Target sequence (P25779 123-467 limits assumed): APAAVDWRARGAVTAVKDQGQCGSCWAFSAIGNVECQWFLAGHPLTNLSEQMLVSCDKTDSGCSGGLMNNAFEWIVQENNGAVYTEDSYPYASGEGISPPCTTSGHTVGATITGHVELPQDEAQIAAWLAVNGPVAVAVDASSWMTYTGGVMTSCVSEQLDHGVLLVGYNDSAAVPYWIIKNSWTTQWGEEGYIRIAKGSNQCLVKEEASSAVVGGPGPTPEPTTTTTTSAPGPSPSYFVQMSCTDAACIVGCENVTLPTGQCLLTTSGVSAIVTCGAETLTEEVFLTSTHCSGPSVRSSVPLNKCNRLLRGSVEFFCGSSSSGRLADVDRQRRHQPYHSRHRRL
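Purified cruzain at 1.5 nM, pre-incubated 15 min with compound at room temperature in 100 mM sodium acetate pH 5.5, 5 mM DTT, 0.00005% Triton X-100. Reaction started with 2 uM Z-FR-AMC; AMC fluorescence increase over 60 s gives rate.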
Cruzain Triton: inhibitors of Trypanosoma cruzi cruzain with detergent; AID 1478; P25779; 0.43% of 200,000 active; Potency, µM, inactives show max response, negative = inhibition, actives largely listed as inhibitors; purified cruzain, Z-FR-AMC fluorescence, 0.01% Triton;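 further: plate controls were neutral wells for no effect and buffer without enzyme for full effect; nearly all actives have a fitted effect of over 40% in size; top concentration of the series not given in the record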
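In this qHTS format, compounds are incubated with 1.5 nM cruzain for 15 min at room temperature before 2 uM Z-FR-AMC is added. Release of AMC is followed at 360/450 nm, and progress is taken as the 60 s fluorescence difference.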
LASV entry inh: blocks Lassa virus binding to or entry into cells; Lassa virus pseudotype entry inhibition, cell reporter; control for the full effect not named in the record; 1.2% of 300,000 active; AID 540256; Potency, µM (doses to about 37.9 µM), without a hit: top-dose activity change, negative = inhibition, usual class: inhibitors; active means well fitted inhibition curve with a large enough effect; inconclusive means small, poorly fitted or top-dose-only effect, or effect the other way; inactive means flat fitted curve, though single readings scatter; tested in HEK293 cells; further: on the % scale 0 is the no-effect control and ±100 the full control effect; nearly all actives have a fitted effect of over 50% in size; luciferase read-out
RE007 growth inh: less growth of the S. pombe RE007 Vpr strain; S. pombe RE007 Vpr strain, BacTiter-Glo ATP luminescence, 24 h; control for the full effect not named in the record; Potency, µM (series often up to 92.2 µM), inactives show top-dose activity change, negative = less growth; 0.21% of 360,000 active; AID 651644; active = well fitted falling curve with a large enough effect; inconclusive = small, poorly fitted or top-dose-only effect; inactive = no such curve, though single readings can be large or run the other way;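 further: on the % scale 0 is the no-effect control and ±100 the full control effect; nearly all actives have a fitted effect of over 50% in size; the assay follows cell death caused by Vpr and the record does not say whether a fall means rescue or toxicity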
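Fission yeast RE007 carrying one integrated HIV-1 vpr copy, seeded at OD 0.01 in PMG+AL medium with 23 nL pinned compound. Grown 24 h at 30 degrees; viability read by BacTiter-Glo luminescence after 5 min.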
MARV entry inh: inhibitors of Marburg virus binding or cell entry. Potency, µM (series often up to 37.8 µM), without a hit: at the top dose activity change, negative = inhibition, hits mostly inhibitors. Marburg virus pseudotyped entry inhibition, cell reporter; control for the full effect not named in the record; about a third of the inactives were read at about 46 µM. 1.8% of 300,000 active. AID 540276; active = well fitted inhibition curve with a large enough effect; inconclusive = small, poorly fitted or top-dose-only effect, or effect the other way; inactive = flat fitted curve, though single readings scatter; tested in HEK293 cells; about a fifth of its hits are not listed in these tables; further: on the % scale 0 is the no-effect control and ±100 the full control effect; luciferase read-out
An asterisk follows results filed as active; ? = inconclusive; . = not tested or not shown; [ ] = another dose, or the depositor's remark. Unless noted, the call rests on the fitted dose curve; in most records, active means well fitted curve in the direction sought with a large enough effect; inconclusive means small, poorly fitted or top-dose-only effect, or another doubt; inactive means no such curve, though single readings can be large; an effect the other way counts as inactive or inconclusive. Potency means the concentration at half of the fitted maximal effect.

SMILES	2A StopGo	SARS PLP yeast	NS1 inh	Cruzain noTriton	Cruzain Triton	LASV entry inh	RE007 growth inh	MARV entry inh
CC1CCCN(Cc2c(O)ccc3c(=O)c(-c4ccc(Cl)cc4)c(C(F)(F)F)oc23)C1 (stereo not given)	-18%	.	.	-11%	-1.3%	23%[46.1 µM]	.	4%[46.1 µM]
O=C(Nc1ccccc1NS(=O)(=O)c1ccc(F)cc1)C1CCCC1	8%	-4%	.	.	.	?	-18%	-8%[46.1 µM]
C/C(=C\c1ccccc1)CN1CCN(C(C)C)C(CCO)C1 (stereo not given)	-11%	-3%	15%	.	.	10%[46.1 µM]	5%	-9%[46.1 µM]
CC1CCN(S(=O)(=O)c2ccc3nc(N4CCN(c5ccc(F)cc5)CC4)ccc3c2)CC1	?	.	.	6%	2.2%	1%[46.1 µM]	.	.
CC(Sc1nnc(-c2ccc(Cl)cc2)n1C)C(N)=O (stereo not given)	16%	-2%	1%	-10%	-0.3%	2%	-14%	6%
O=C(NCc1ccccc1C(F)(F)F)C1CC(c2ccc(C(F)(F)F)cc2)=NO1 (stereo not given)	-2%	-3%	-3%	.	.	.	-2%	.
CCOCCn1ccc2c(OCC(=O)Nc3cc(OC)ccc3OC)cccc2c1=O	?	-4%	.	.	.	?	16%	?
O=C(CSc1nnc(CNC(=O)c2ccco2)o1)Nc1ccccc1C(F)(F)F	-2%	1%	7%	.	.	.	-3%	.
Nc1nc(SCC(=O)Nc2ccc(Br)cc2Br)n[nH]1	-13%	-1%	.	.	.	14%	2%	?
O=C(Cc1n[nH]c(=O)c2ccccc12)NCc1ccc(Cl)cc1	-31%	0%	1%	.	.	9%	-6%	10%[46.1 µM]
N#Cc1nc(Cc2cccc3ccccc23)oc1N1CCC(C(N)=O)CC1	-19%	5%	-4%	?	-1.9%	9%	0%	13%
Cc1cc(F)ccc1NCc1ccccc1-c1nnc(-c2ccccc2Cl)o1	15%	.	.	-25%	-3.5%	14%[46.1 µM]	.	-2%[46.1 µM]
CC(CNc1ccc([N+](=O)[O-])c2cccnc12)Nc1c([N+](=O)[O-])cc(C(F)(F)F)cc1[N+](=O)[O-] (stereo not given)	0%	-1%	17%	?	-5.2%	-28%	-1%	?
COc1ccc(OC)c(S(=O)(=O)N2CCCc3ccccc32)c1	8%	-3%	1%	-1%	-4.1%	23%	-9%	?
Cn1c(/C(C#N)=C(\O)c2cc(Cl)sc2Cl)nc2ccccc21	-5%	?	-4%	.	.	.	8%	.
CCc1nc(C(N)=O)c2[nH]c(=O)n(-c3ccccc3F)c2n1	-8%	0%	-6%	.	.	.	14%	.
COc1ccc(C2NC(c3ccc(OC)c(OC)c3OC)C(C)C(=O)C2C)c(OC)c1OC (stereo not given)	-7%	5%	-11%	5%	1.5%	?	3%	-1%
COC(=O)C(c1ccccc1)C1(O)CC(C)N(C)CC1C (stereo not given)	-14%	-11%	-1%	.	.	1%	5%	21%
O=C(/C=C/c1cccc([N+](=O)[O-])c1)NCCSCc1ccc(Cl)cc1	0%	-13%	-13%	-11%	-7.2%	-6%	16%	6%
CCOc1ccccc1N1CCN(S(=O)(=O)c2ccc3c4c(cccc24)C(=O)N3)CC1	-25%	-4%	-3%	29%	-7.8%	?	0%	?
CCOCCCn1c(=S)[nH]c2cc(C(=O)N3CCN(C)CC3)ccc2c1=O	-7%	8%	11%	11%	-3.0%	4%	3%	2%
CCn1c(CSc2nc(C)cs2)nc2cc(S(=O)(=O)N(C)C)ccc21	-4%	0%	-3%	10%	2.6%	0%	6%	-9%
CCC(C)NC(=O)C1CCCN(S(=O)(=O)c2ccc3c(c2)CC(C)N3C(=O)C2CC2)C1 (stereo not given)	8%	2%	-4%	.	.	.	5%	.
C=CCn1cnc2c(c1=O)c1nc3ccccc3nc1n2-c1ccc(C)cc1	.	10%	1%	21%	-2.5%	.	.	.
CCCCC(CC)C(=O)Nc1cc(C(=O)NCCC)ccc1N1CCC2(CC1)CC(c1ccccc1)=NO2 (stereo not given)	22%	6%	?	.	.	.	7%	.
SMILES	2A StopGo	SARS PLP yeast	NS1 inh	Cruzain noTriton	Cruzain Triton	LASV entry inh	RE007 growth inh	MARV entry inh
Cc1ccc(N2CCN(c3ccc(C)cc3)C2c2cccnc2)cc1	.	-7%	-6%	-2%	-1.6%	?	-8%	?
CCCN1CCN(CCCNC(=O)Cn2nc(C)n3c(cc4cc(OC)ccc43)c2=O)CC1	-11%	4%	2%	.	.	.	1%	.
O=C(NC(NC(=S)Nc1ccccc1O)C(Cl)(Cl)Cl)c1ccco1 (stereo not given)	7%	-46%	-19%	0%	-5.8%	15%	-4%	14%
Cc1c(C)c2c(OCC(=O)N[C@@H](C)C(=O)O)cc3c(c2oc1=O)CCC(C)(C)O3	-8%	-2%	3%	.	.	-4%	-2%	8%
CC(c1ccccn1)N(C)C(=O)c1ccc2nc(Cc3ccccc3F)oc2c1 (stereo not given)	76%[activator]	2%	-15%	.	.	?	-1%	15%
COc1ccc(C(=O)Nc2nnc(-c3ccccc3)o2)cc1OC	1%	-2%	-46%	1%	2.6%	-15%	-19%	-1%
CN(C)c1ccc(C2N3CC4(C)CN2CC(C)(C3)C4O)cc1 (stereo not given)	-22%	0%	-92%	7%	3.1%	.	24%	-2%
COc1ccccc1N1CCN(C2CCCN(C(=O)CC(F)(F)F)C2)CC1 (stereo not given)	-19%	?	-7%	.	.	.	4%	.
C=CCn1c2ccccc2c2nnc(SCC(=O)OCN3C(=O)c4ccccc4C3=O)nc21	-6%	-4%	3%	6%	-9.4%	7%	-1%	17%
Cc1cccc(Cl)c1NC(=O)N1CCN(c2ccnc3cc(Cl)ccc23)CC1	?	-1%	-1%	.	.	.	5%	.
CCN(c1ccccc1)S(=O)(=O)c1ccc(C(=O)NC2CCN(Cc3ccccc3)CC2)cc1	?	-15%	.	.	.	?	3%	0.71µM*
CC1=C(C)CC(C(=O)Nc2nc(C)cs2)C(C(=O)O)C1 (stereo not given)	-4%	5%	15%	.	.	.	1%	.
Cc1ccc(C2C(C(=O)c3cccs3)=C(O)C(=O)N2c2nnc(C)s2)cc1 (stereo not given)	19%	2%	.	.	.	21%	18%	30%[46.1 µM]
COCCN(CCOC)C(=O)CCn1c(=O)oc2ccccc21	11%	-8%	2%	-6%	1.7%	?	7%	?
COc1ccc(N2CC(C(=O)Nc3nnc(Cc4ccccc4)s3)CC2=O)cc1 (stereo not given)	-4%	1%	6%	.	.	-5%[46.1 µM]	4%	-11%[46.1 µM]
CCOC(=O)c1sc2nc(CC(=O)OC)nc(N(C)CCc3ccccn3)c2c1C	-10%	-3%	.	.	.	?	-1%	0%[46.1 µM]
C/C(=N\NC(=O)c1n[nH]c2c1CCC2)c1ccco1	-25%	-7%	-4%	.	.	?	-9%	?
CCOc1cc(/C=N/NC(=O)c2cccc(S(=O)(=O)N3CCOCC3)c2)ccc1OCC(=O)N(C)C	-13%	-12%	.	.	.	-1%	11%	11%[46.1 µM]
CC(C)c1ccc(CNCCCSc2ncccn2)cc1	8%	-1%	9%	.	.	.	-6%	.
COC(=O)C1CCN(c2cnccn2)CC1	11%	0%	0%	.	.	-16%[46.1 µM]	-12%	-4%[46.1 µM]
CCOC(=O)c1ccc(NC(C)=O)c([N+](=O)[O-])c1	6%	-4%	-3%	.	.	0%	2%	-1%[46.1 µM]
CC(=O)Nc1ccc(NC(=O)C2CC(=O)N(C(C)C)C2)cc1 (stereo not given)	-9%	-1%	1%	.	.	?	5%	10%
Cc1c(C(=O)C(=O)N2c3ccccc3CC2C)c2ccccc2n1C (stereo not given)	3%	-7%	.	.	.	?	-5%	?
Cc1ccc(OCC(=O)N2CCN(C3CCC(c4ccccc4)CC3)CC2)cc1 (stereo not given)	?	-2%	-12%	.	.	20%	-11%	?
Cc1cccc(NC(=O)c2ccc3c(c2)OCCO3)c1C	41%[activator]	2%	3%	.	.	11%[46.1 µM]	9%	?
SMILES	2A StopGo	SARS PLP yeast	NS1 inh	Cruzain noTriton	Cruzain Triton	LASV entry inh	RE007 growth inh	MARV entry inh
CCOC(=O)c1c(C)[nH]c(C)c1S(=O)(=O)Nc1ccc(CN2CCCCC2)cc1	15%	3%	-12%	.	.	.	-1%	.
c1ccc(Nc2nc(N3CCOCC3)nc(N3CCOCC3)n2)cc1	?	-10%	-14%	-5%	-4.6%	-14%	4%	?
CC(=O)c1c(C)n(CCCOC(C)C)c2ccc(O)cc12	.	-3%	-7%	-1%	3.0%	-5%	299%	11%
CCCn1c(N)c(N2CCCCC2)c(=O)n(CC(=O)Nc2ccccc2)c1=O	57%[activator]	11%	1%	-11%	2.3%	12%	-4%	2%
CCc1cccc(CC)c1NC(=O)CSc1nc2ccc(N3C(=O)C4C(C3=O)[C@H]3C=C[C@@H]4C3)cc2s1 (stereo not given in full)	?	-12%	12%	4%	-0.7%	-21%	-3%	-17%
Cn1c(SCC(=O)Nc2nc3ccccc3s2)nnc1-c1ccccc1	32%[activator]	-1%	-2%	?	-3.9%	?	1%	1%
O=C(Nc1ccc(Br)cc1)c1ccc(F)c(S(=O)(=O)N2CCN(c3ccccn3)CC2)c1	?	1%	.	.	.	?	-14%	?
COc1cccc(CNC(=O)c2cc3c(C)nc4ccccc4c3o2)c1	22µM*	5%	-3%	?	-6.4%	.	-11%	.
CCCCCNC(=O)Cn1c(=O)c2c(ncn2CC(C)C)n(Cc2ccccc2)c1=O	-6%	-1%	-31%	.	.	-6%[46.1 µM]	9%	5%[46.1 µM]
CC(=O)Nc1ccc(S(=O)(=O)NNC2=NS(=O)(=O)c3ccccc32)cc1	-5%	0%	.	.	.	19%[46.1 µM]	23%	-13%[46.1 µM]
C=CCn1cnc2c(nnn2-c2cc(C)cc(C)c2)c1=O	8%	-2%	1%	.	.	19%	3%	-1%
Cn1cc(Cl)c(C(=O)OCC(=O)Nc2ccccc2)n1	3%	4%	-7%	-3%	-1.7%	2%	-6%	4%
O=C(Nc1nnc(C2CCCO2)s1)c1ccc(Br)cc1 (stereo not given)	54%[activator]	9%	-6%	?	0.1%	?	-6%	20%
